# YopH PTP inh = blocks Yersinia enterocolitica YopH tyrosine phosphatase; fluorescence Ex485/Em525; AID 898; 140,000 compounds, 0.16% hits; inhibition, %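 (about 10 µM by stock and volumes)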;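 active = inhibition of 50% or more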;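 also: controls were vehicle for no effect and minimum signal wells for full effect; inactives centre near -20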
# RecA intein inh = blocks M. tuberculosis RecA intein splicing. P9WHJ3. cell-free RecA intein splicing, fluorescence. inhibition, %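 (about 9 µM by stock and volumes)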. 290,000 compounds, 0.75% hits; in the data active = inhibition above about 30%; inconclusive = no clear call, values can overlap the other calls;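 also: 0% = vehicle wells and 100% = reference inhibitor control wells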
# Target sequence (P9WHJ3 whole entry, looked up): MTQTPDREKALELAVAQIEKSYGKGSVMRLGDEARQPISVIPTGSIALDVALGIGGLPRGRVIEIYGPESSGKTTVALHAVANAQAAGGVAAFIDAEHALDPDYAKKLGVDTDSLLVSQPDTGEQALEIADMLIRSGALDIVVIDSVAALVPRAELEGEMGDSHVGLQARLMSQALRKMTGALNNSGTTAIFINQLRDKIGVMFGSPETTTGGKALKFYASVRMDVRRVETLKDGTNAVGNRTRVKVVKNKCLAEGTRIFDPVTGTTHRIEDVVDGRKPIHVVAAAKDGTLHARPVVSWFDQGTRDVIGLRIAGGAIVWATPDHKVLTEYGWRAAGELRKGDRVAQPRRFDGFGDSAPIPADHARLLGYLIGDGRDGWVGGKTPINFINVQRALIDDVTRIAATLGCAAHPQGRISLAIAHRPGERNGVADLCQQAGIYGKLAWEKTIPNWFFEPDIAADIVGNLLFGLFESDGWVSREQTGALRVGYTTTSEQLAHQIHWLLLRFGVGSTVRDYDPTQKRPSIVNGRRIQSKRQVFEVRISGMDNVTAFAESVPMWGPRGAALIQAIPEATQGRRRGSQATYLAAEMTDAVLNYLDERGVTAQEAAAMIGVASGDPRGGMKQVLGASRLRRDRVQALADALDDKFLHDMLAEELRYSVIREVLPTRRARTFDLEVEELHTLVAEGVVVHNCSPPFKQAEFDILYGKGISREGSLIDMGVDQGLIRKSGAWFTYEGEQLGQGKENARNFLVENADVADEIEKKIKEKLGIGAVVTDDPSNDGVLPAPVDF
# Mtb H37Rv = M. tuberculosis H37Rv growth inhibitors, H37Rv strain (AID 1626). 220,000 compounds, 0.95% hits. inhibition, % at 10 µM, or IC50 in µM where a hit was titrated. M. tuberculosis H37Rv growth inhibition; higher % means a stronger effect;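 active = confirmed in a dose series; inconclusive = inhibition above 80% but not taken into the dose series; inactive = below 80% or under 30% at every dose of the series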;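 also: bacteria incubated seven days before Alamar blue readout; 0% = bacteria only wells and 100% = bacteria with antibiotic wells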
# Mtb betalactam = beta-lactam sensitization of Mtb H37Rv; M. tuberculosis H37Rv growth with meropenem, percent inhibition; hits of this screen are not shown here; inhibition, % at 25 µM; 330,000 compounds, 0.27% hits; AID 434955;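 active = about 74% or more and at least 40 points above the plate without the antibiotic, then above 30% in a dose series; inconclusive = first-round hits that could not be retested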;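 also: growth measured after seven days incubation then overnight dye step; 0% = bacteria only wells and 100% = bacteria with antibiotic; twin plates without the antibiotic show which effects depend on it; some results filed as inactive read as strong as hits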
# Arbovirus anti = blocks arbovirus infection; arbovirus infection cell-based antiviral screen; inhibition, % at 10 µM; 200,000 compounds, 0.37% hits;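 active = inhibition from about 30%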;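 also: bluetongue infection of BSR cells; cell survival read as ATP light after 72 h; 0% = infected wells without compound and 100% = uninfected wells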
# Arbovirus anti repeat = also measured in Arbovirus anti; calls as there; inhibition, %; measured here: 10K subset replicate screen; many hits read low in the repeat;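 first of two repeat runs on a subset; 0% = infected and 100% = uninfected wells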
# Numbers without * were called inactive; i = inactive; ? = inconclusive; nt = not tested or not shown. A portion of the library; count on the stated rates, not on these rows.
# Start of the listing, in advance (5 entries):
SMILES,YopH PTP inh,RecA intein inh,Mtb H37Rv,Mtb betalactam,Arbovirus anti,others
Cc1ccc(NC(=O)CN2C(=O)S/C(=C\c3cc(C)n(-c4ccc(C(=O)O)cc4)c3C)C2=O)cc1,nt,-5.2,3%,-1,-4,
COc1ccc(C2c3[nH]c4ccccc4c3CCN2C(=O)Cc2nonc2C)c(F)c1 (stereo not given),nt,7.5,-4%,16,nt,
O=C(NCCNS(=O)(=O)c1ccc(Cl)cc1)c1cc(OCC(F)(F)F)ccc1OCC(F)(F)F,-20,-0.3,5%,0,1,
CCOC(=O)CSc1nnc(CNC(=O)c2cccs2)n1-c1cccc(C)c1,-7,nt,-1%,5,3,
COC(=O)Cn1c(CN2CCC(Cc3ccccc3)CC2)nc2c1c(=O)n(C)c(=O)n2C,13,0.6,2%,-2,11,

# The listing (from the top)
SMILES,YopH PTP inh,RecA intein inh,Mtb H37Rv,Mtb betalactam,Arbovirus anti,others
Cc1ccc(NC(=O)CN2C(=O)S/C(=C\c3cc(C)n(-c4ccc(C(=O)O)cc4)c3C)C2=O)cc1,nt,-5.2,3%,-1,-4,
COc1ccc(C2c3[nH]c4ccccc4c3CCN2C(=O)Cc2nonc2C)c(F)c1 (stereo not given),nt,7.5,-4%,16,nt,
O=C(NCCNS(=O)(=O)c1ccc(Cl)cc1)c1cc(OCC(F)(F)F)ccc1OCC(F)(F)F,-20,-0.3,5%,0,1,
CCOC(=O)CSc1nnc(CNC(=O)c2cccs2)n1-c1cccc(C)c1,-7,nt,-1%,5,3,
COC(=O)Cn1c(CN2CCC(Cc3ccccc3)CC2)nc2c1c(=O)n(C)c(=O)n2C,13,0.6,2%,-2,11,
CCNC(=O)NC(=O)COC(=O)CCCc1nc2ccccc2s1,nt,-0.5,3%,-2,12,
Brc1cccc(OCCCN2CCCCCC2)c1,nt,-2.2,8%,-2,-2,
CC(C)Sc1nc(N)nc(-c2cccs2)c1C#N,-23,14,7%,0,-15,
CCN(CC(=O)NC(=O)Nc1ccccc1F)Cc1ccccc1,nt,-1.8,nt,-1,nt,
O=C(NCc1ccccc1Cl)c1ccc(CS(=O)(=O)c2ccccc2)o1,nt,1.2,nt,-3,nt,
CCOC(=O)N1CCN(C(=O)CN(c2ccc(C)cc2)S(=O)(=O)c2c(C)noc2C)CC1,11,-0.3,-4%,-9,-2,
Cc1nn(-c2ccc([N+](=O)[O-])cc2)c(N)c1-c1ccccc1,nt,0.2,5%,-1,14,
Cc1cccc2nc3c(nc12)CCCC3,nt,-1.4,nt,-3,nt,
N/C(=N/O)C(c1ccccc1)c1ccccc1,1,5.8,-10%,2,-9,
Cc1ccc(CNC(=O)CN(C(=O)C2(C)CC(=O)N=C3C=CC=CN32)c2ccccc2)cc1 (stereo not given),nt,-1.2,nt,-6,nt,
COc1ccc(NC(=O)C(c2ccc(OC)cc2)N(C)C(=O)CNC(C)=O)cc1 (stereo not given),7,0.8,-2%,-11,8,
O=S(=O)(NCc1csc(-c2ccccc2)n1)c1ccc(Cl)s1,-38,3.9,nt,6,17,Arbovirus anti repeat=5
Cc1nn(-c2ccccc2Cl)c(Cl)c1/C=N/Nc1cccc(C(=O)O)c1,-44,0.9,2%,9,-15,
COc1cccc(NC(=O)CSc2nnc(NC(=O)c3ccco3)s2)c1,nt,-1.6,nt,-12,nt,
Cc1cc(C)c2c(N)c3cccc(C)c3nc2n1,-19,i,1%,4,-29,
Cc1nc2c(C(=O)NCCc3ccccc3)c[nH]n2c(=O)c1Cl,-51,-1.8,-5%,?,10,
COc1ccc(S(=O)(=O)NCCN2CCOCC2)cc1[N+](=O)[O-],nt,-3.4,nt,2,nt,
CC(=O)NS(=O)(=O)c1ccc(NS(=O)(=O)c2ccc(F)cc2)cc1,-31,-0.3,4%,-8,6,
CC(=O)Nc1ccc(S(=O)(=O)Nc2nc3ccccc3nc2-n2ccc(=NC(=O)c3ccccc3)cc2)cc1,nt,-15,5%,0,nt,
O=C(CSc1nnnn1-c1cccc(F)c1)Nc1nc2ccccc2s1,-12,3.8,-4%,-3,1,
O=C(Nc1ccc(F)cc1)N1CCC(c2nc3c(nnn3Cc3cccc(Cl)c3)c(=O)[nH]2)CC1,-39,nt,64%,93,-2,
COc1ccc(N2CCN(c3oc(-c4ccccc4OC)nc3C#N)CC2)cc1,-40,nt,nt,47,-10,
O=C(NCc1ccco1)C1CCC(N2C(=O)c3ccccc3C2=O)CC1 (stereo not given),-46,0.3,7%,10,5,
ClCC1NCC(c2ccccc2Cl)c2c1[nH]c1ccccc21 (stereo not given),nt,nt,-3%,-1,9,
COc1ccc2[nH]c(C)c(CCNc3ccc(C(F)(F)F)cc3[N+](=O)[O-])c2c1,-20,9.2,13%,0,-12,
CC(c1ccccc1)n1c(-c2ccc(C(C)(C)C)cc2)n[nH]c1=S (stereo not given),nt,6.6,nt,5,nt,
CCOC(=O)C(=CNc1ncccc1C)C(=O)OCC,-29,2.7,1%,13,9,
C=CCn1c(-c2cccc(S(=O)(=O)N(CC)CC)c2)n[nH]c1=S,nt,1.5,-3%,1,-1,
O=C(c1c(F)c(F)c(F)c(F)c1F)N1CCN(c2cccc(C(F)(F)F)c2)CC1,4,1.5,-1%,4,-2,
O=C1CC(=O)N(c2ccccc2)N1c1ccccc1,-26,18,2%,4,-3,
CCOc1ccccc1CN1CCNC(=O)C1CC(=O)NC1CCCCCC1 (stereo not given),nt,-3.5,nt,8,nt,
CC(Nc1nc(-c2ccccc2)nc2ccccc12)c1ccccc1 (stereo not given),nt,18,21%,31,-10,
CCC(N=c1cc(-c2ccc(OC)cc2)oc2ccc(C)cc12)C(=O)O (stereo not given),-3,-0.4,-6%,8,2,
c1ccc(OCc2noc(CN3CC[C@@H]4CCCC[C@H]4C3)n2)cc1,nt,5.1,0%,1,0,
CC(C)(C)c1ccc(C(=O)NCCNC(=O)c2ccco2)cc1,nt,1.0,nt,-5,nt,
Cc1ccc(NC(=O)Nc2ccc(Cl)cn2)cc1,nt,0.7,10%,nt,-2,
COc1cc(C(=O)NCCCN(C)C)ccc1OCC(=O)Nc1cccc(C(F)(F)F)c1,nt,-2.3,-4%,-1,3,
CCOc1ccc(CN(C)CC(=O)NCc2ccc(F)cc2)cc1,nt,-1.4,nt,-4,nt,
CCC(Cc1ccccc1)NC(=O)C1CC1 (stereo not given),nt,2.4,nt,2,nt,
O=C(CSc1ccc2nnc(CCNC(=O)c3ccccc3)n2n1)NCc1ccc(F)cc1,nt,2.0,nt,-3,nt,
COc1ccc(NC(=O)CSc2nc3nc(C)cc(C)n3n2)cc1,nt,0.7,nt,-5,nt,
O=C(NN/C(=N/S(=O)(=O)c1ccc(Cl)cc1)c1ccccc1)c1cccc(Cl)c1,nt,-0.2,nt,-4,nt,
COc1ccc(NC(=O)CN(C)C(=O)/C=C/c2cn(-c3ccccc3)nc2-c2ccc(C)cc2)cc1,nt,-6.0,nt,7,nt,
COCc1cnc(C)nc1N,nt,-0.2,4%,-2,4,
COc1ccc(NC(=O)CCn2nnc(-c3ccc(C)cc3)n2)cc1OC,-8,3.3,0%,-7,-11,
COc1ccc(NC(=O)CN2c3cccc4cccc(c34)S2(=O)=O)cc1,-42,4.3,-6%,5,14,
COc1cc(/C=C(\C#N)c2ccccn2)ccc1OCC(=O)Nc1c(Cl)cccc1Cl,-28,nt,1%,-3,-6,
COc1ccc(CC(=O)Nc2ccc(NC(=O)c3ccc(Br)cc3)cc2)cc1OC,nt,-5.0,nt,3,nt,
Cc1nnc(Sc2nc3c(c(=O)[nH]c(=O)n3C)n2CCc2ccccc2)s1,nt,-0.6,2%,1,1,
CC(C)CCN1CCN=C1Nc1ccccc1,nt,0.2,nt,-3,nt,
CCS(=O)(=O)Nc1cccc(C2=NN(S(=O)(=O)CC)C(c3cccs3)C2)c1 (stereo not given),nt,1.3,nt,3,nt,
Cc1ccc(Oc2ccccc2)c(NC=O)c1,-38,-3.4,-5%,7,0,Arbovirus anti repeat=0
Cc1ccc2c3c(c(SCC(=O)Nc4nccs4)nc2c1)CCCC3,-34,nt,-10%,nt,4,
Cc1nnsc1C(=O)NCc1c(F)cccc1Cl,nt,0.4,5%,?,nt,
CCOc1cc(/C=N/NC(=O)c2cc(C)n(-c3ccc(F)cc3)c2C)ccc1O,nt,2.8,-3%,65,nt,
# Other entries
SMILES,YopH PTP inh,RecA intein inh,Mtb H37Rv,Mtb betalactam,Arbovirus anti,others
Cc1noc(C)c1S(=O)(=O)Nc1ccc(C(=O)N2CCN(c3cccc(Cl)c3)CC2)cc1,-18,3.4,-6%,0,-3,
O=C(Nc1cccc2ccccc12)N1N=CCC1c1ccccc1 (stereo not given),nt,2.6,14%,5,nt,
CC(=O)Nc1ccc(N(C(=O)c2cnccn2)C(C(=O)NC2CCCCC2)c2ccc(O)cc2)cc1 (stereo not given),-35,0.3,-9%,-3,2,
COc1ccc(NC(=S)N2CCC(NC(=O)c3ccc(F)cc3)CC2)cc1,nt,1.1,nt,2,nt,
CCN(CC(=O)NCc1ccc(Cl)cc1)C(=O)CNS(=O)(=O)c1ccc(NC(C)=O)cc1,nt,0.5,nt,-2,nt,
CCOC(=O)c1c(C)[nH]c(C(=O)OCC(=O)NC(C)C)c1C,-30,-5.9,-8%,1,5,
CCCCNC(=O)NNC(=O)C1CC1(c1ccccc1)c1ccccc1 (stereo not given),nt,1.6,nt,-5,nt,
COC(=O)c1cc2c(s1)-c1ccc(OC)cc1CC2,nt,-6.9,9%,60,nt,
Cc1nn(CCc2n[nH]c(=S)n2-c2ccc(F)cc2)c(C)c1[N+](=O)[O-],2,-0.6,-10%,-14,4,
O=c1cc(CO)occ1OCc1cccc(F)c1,-34,-4.3,-3%,8,7,
CCOC(=O)[C@@H]1[C@H]2COc3ccc(Br)cc3[C@@H]2N2C(=O)N(c3cccc(F)c3)C(=O)[C@@]12C,nt,2.8,nt,-8,nt,
CC(NCc1ccc(F)cc1)C(=O)NC1CCCCC1 (stereo not given),nt,-0.1,-4%,-1,-1,
O=C(Oc1ccccc1)c1cccnc1Oc1ccccc1,nt,2.3,-3%,7,nt,
Cc1ccc(C(=O)C2C(=O)c3ccccc3C2=O)cc1,-1,2.1,39%,97,9,
Cc1cccc(Nc2c(-c3ccc(O)cc3)nc3ncccn23)c1,nt,-5.0,9%,1,-3,
CN(c1ccccc1)S(=O)(=O)c1ccc(NC(=S)NC(=O)C2CC2)cc1,-12,7.6,-2%,1,5,
O=C(c1cnn(C(=O)c2ccccc2)c1)c1ccccc1O,-39,5.5,9%,13,2,
O=C(Nc1ccccc1)c1cc(-n2cnnc2)ccc1Cl,3,-0.5,4%,2,13,
Cc1nnc2n1N=C(c1ccc(OC(F)F)cc1)C(C)S2 (stereo not given),nt,1.7,nt,4,nt,
Nc1nc2nn(-c3ccccc3)nc2c(=O)[nH]1,nt,-1.7,3%,3,nt,
COc1ccc(CCNS(=O)(=O)c2ccc3c(c2)NC(=O)CO3)cc1OC,nt,-0.2,nt,-5,nt,
Cc1ccc(/C=C/c2nc3sc(C(=O)O)c(C)c3c(=O)[nH]2)cc1[N+](=O)[O-],nt,1.4,nt,10,nt,
O=C(CNS(=O)(=O)c1ccc(F)cc1)N1CCN(c2ccc(F)cc2)CC1,-16,-0.9,4%,-6,2,
COc1ccc(OCC(=O)O/N=C(\N)c2ccc(OC)cc2)cc1,nt,16,17%,6,nt,
COc1cc(CNC(C)(C)CO)cc(Br)c1OCc1ccc(Cl)cc1Cl,-9,-0.2,62%,88,-29,
Cc1c(Cl)cccc1NC(=S)N1CCc2ccccc2C1,nt,3.1,3%,-6,5,
CNc1nc2c(-c3ccc(Cl)cc3)nnn2c2ccccc12,nt,-27,nt,1,nt,
CCOc1ccccc1OCC(=O)NNC(=O)Cn1cnc2c1c(=O)n(C)c(=O)n2C,nt,0.2,0%,-4,7,
Cc1ccc(S(=O)(=O)N2CCN=C2SC(C)c2ccccc2)cc1 (stereo not given),nt,10,nt,0,nt,
CC(=O)OCC(=O)Nc1c(C)cc(C)cc1C,nt,nt,-8%,17,19,
C[C@]12CC[C@H](O)CC1=CC[C@@H]1[C@@H]2CC[C@]2(C)C(=O)CC[C@@H]12,nt,0.3,7%,-5,nt,
Cc1nc2cc(C(=O)O)ccc2n1C1CCCCC1,-11,-2.9,3%,3,-3,
O=C(O)CCCNC(=O)Nc1ccccc1,-28,-0.9,-10%,-1,-1,
CCC(C)NC(=O)CN1C(=O)CN=C(c2ccccc2)c2ccccc21 (stereo not given),nt,-0.2,5%,-2,6,
Cc1ccsc1C(=O)N1CC(=O)Nc2ccccc21,-25,1.6,3%,5,-19,
CCC(c1nnnn1Cc1ccccc1)N1CCN(C(=O)c2ccco2)CC1 (stereo not given),-42,1.7,-12%,5,8,
NS(=O)(=O)c1ccc(NC(=O)Nc2ccc(S(N)(=O)=O)cc2)cc1,nt,-2.1,-9%,7,nt,

# Assay outcomes: PubChem, several laboratories
